Bioassay records deposited in PubChem BioAssay by several laboratories.
L major viab – Leishmania major promastigote growth inhibition, primary screen; Leishmania major promastigotes, resazurin fluorescence viability; inhibition, % at 10 µM; 200,000 tested, 9% active; AID 1063, 2008; in the data active = inhibition above about 50%;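 note: promastigotes grown with compound for 44 hours at 28 °C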
Hsp70 act – Hsp70 transcriptional activators, primary screen, cell-based, HeLa, Hsp70 promoter luciferase, luminescence, 10 µM | HeLa Hsp70 promoter luciferase reporter; scaled: vehicle 0, proteasome-inhibitor control 100% | 200,000 tested, 0.04% active | AID 1203, 2008 | activation, % at 10 µM;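 active = activation above the mean across all tested compounds plus 3 SD, cutoff set per campaign, cut at about 5.5% in these data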;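 note: 100% = MG132 at 30 µM as the positive control and 0% = DMSO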
DTT redox prof – compounds producing H2O2 with reducing agent – biochemical, NIH compound library profiling, artefact control for MLSCN library redox annotation, primary screen | 200,000 tested, 0.03% active | activation, % at 10 µM | AID 878, 2007 | DTT-dependent redox cycling H2O2, phenol red/HRP absorbance; 100% = 100 µM peroxide control, 0% = buffer;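 active = activation of at least 50% relative to the plate's high and low controls in the primary single-dose screen; inactive = activation below 50%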;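 note: compound incubated with DTT at 0.8 mM final as the reducing agent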
Efa HMGR inh – inhibitors of E. faecalis class II HMGR, primary screen, biochemical, Enterococcus faecalis. AID 1066, 2008. HMG-CoA reductase (Enterococcus faecalis, mvaE). purified E. faecalis HMGR, NADPH absorbance 340 nm kinetic. 190,000 tested, 0.41% active. inhibition, % at 10 µM;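 active = inhibition above a set limit, the median over all tested compounds plus 3 SD, cut at about 9.5% in these data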;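 note: enzyme runs in reverse so mevalonate oxidation gives rising NADPH absorbance; 0% = complete reaction with DMSO and 100% = background rate lacking mevalonate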
S1P3 antagonist – S1P3 receptor antagonists, primary screen, cell-based; Sphingosine 1-phosphate receptor 3 (Homo sapiens), Q99500; CHO S1P3 NFAT-BLA reporter, FRET fluorescence, antagonist mode; inhibition, % at 4.98 µM; 170,000 tested, 0.27% active; AID 485, 2006;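 active = inhibition above the plate cutoff, the mean inhibition of test wells on that plate plus 3 SD, cut at about 28% in these data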;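 note: cells challenged with S1P at its EC80 of 0.8 µM; blue over green emission ratio from cleaved BLA substrate after 4 h stimulation; 0% = S1P-stimulated wells and 100% = unstimulated DMSO-only wells; some compounds past the cut are filed as inactive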
Target sequence (Q99500 whole entry, looked up): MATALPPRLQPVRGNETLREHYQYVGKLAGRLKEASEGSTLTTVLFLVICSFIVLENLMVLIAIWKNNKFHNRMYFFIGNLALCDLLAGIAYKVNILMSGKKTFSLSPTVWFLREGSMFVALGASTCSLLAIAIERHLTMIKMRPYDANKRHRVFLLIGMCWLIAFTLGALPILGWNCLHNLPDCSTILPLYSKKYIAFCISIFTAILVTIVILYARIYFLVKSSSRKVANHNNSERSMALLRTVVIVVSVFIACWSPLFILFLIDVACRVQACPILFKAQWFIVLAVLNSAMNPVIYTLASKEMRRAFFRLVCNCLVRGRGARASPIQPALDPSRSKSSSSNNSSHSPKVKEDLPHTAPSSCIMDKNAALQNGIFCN
Active calls of the source: *; . = not tested or not shown.

SMILES	L major viab	Hsp70 act	DTT redox prof	Efa HMGR inh	S1P3 antagonist
Nc1ccc2c(c1)Cc1ccccc1-2	-2	-0.2	0.6	3	-9
CN1C(=O)CN=C(c2ccccc2)c2cc([N+](=O)[O-])ccc21	.	0.6	.	5	-7
Cc1cccc(NC(N)=S)c1	-7	-0.2	6.7	-5	.
CCCC(=O)NC(Oc1ccc(Cl)cc1Cl)C(Cl)(Cl)Cl (centres undefined)	-5	-0.2	1.7	-12	.
CCN1CCN(c2nc3ccccc3s2)CC1	5	0.2	-3.7	-10	.
CCOC(=O)N(c1ccccc1)P1(=S)OCC(C)O1 (centres undefined)	-2	0.5	-0.2	-5	1
CCCCCn1c(N)c(C(=O)NCc2cccs2)c2nc3ccccc3nc21	8	-0.1	3.9	-4	.
CCCCC/C(=N\O)c1c[nH]c2ccccc12	12	0.0	2.5	-8	.
CC(C)CCC1(CN2CCCC2=O)C(=O)NC(=O)NC1=O	-5	-0.2	1.5	2	.
O=P(C(c1ccc2c(c1)OCO2)N1CCOCC1)(N1CCOCC1)N1CCOCC1 (centres undefined)	-1	-0.3	-8.8	-11	19
O=[N+]([O-])c1ccc(C2C3C(c4ccccc4)=NC4(CCCCC4)N32)cc1 (centres undefined)	20	-0.3	-2.9	-5	.
O=[N+]([O-])c1ccc(N2CCNCC2)cc1NCC1CCCO1 (centres undefined)	1	0.2	2.6	0	.
O=C(Cn1cnc2sc3c(c2c1=O)CCCC3)NCCC(=O)N1CCC2(CC1)OCCO2	-4	0.0	-0.5	-3	0
OC(Cn1c2ccccc2c2ccccc21)C[n+]1cccc2ccccc21 (centres undefined)	13	0.0	-8.9	-21	.
CN1CCN(c2nc(N(C)C)oc(=O)c2C#N)CC1	-7	0.7	-4.1	-1	.
C=C(C)CSc1nnc([C@@H](N)Cc2c[nH]c3ccccc23)o1	-3	-0.3	1.2	0	14

4 records drawn at random from those above, as already listed:
SMILES	L major viab	Hsp70 act	DTT redox prof	Efa HMGR inh	S1P3 antagonist
CCN1CCN(c2nc3ccccc3s2)CC1	5	0.2	-3.7	-10	.
CC(C)CCC1(CN2CCCC2=O)C(=O)NC(=O)NC1=O	-5	-0.2	1.5	2	.
O=P(C(c1ccc2c(c1)OCO2)N1CCOCC1)(N1CCOCC1)N1CCOCC1 (centres undefined)	-1	-0.3	-8.8	-11	19
CCOC(=O)N(c1ccccc1)P1(=S)OCC(C)O1 (centres undefined)	-2	0.5	-0.2	-5	1

Among those listed so far, these have four or more nitrogen atoms:
SMILES	L major viab	Hsp70 act	DTT redox prof	Efa HMGR inh	S1P3 antagonist
CCCCCn1c(N)c(C(=O)NCc2cccs2)c2nc3ccccc3nc21	8	-0.1	3.9	-4	.
O=[N+]([O-])c1ccc(N2CCNCC2)cc1NCC1CCCO1 (centres undefined)	1	0.2	2.6	0	.
O=C(Cn1cnc2sc3c(c2c1=O)CCCC3)NCCC(=O)N1CCC2(CC1)OCCO2	-4	0.0	-0.5	-3	0
CN1CCN(c2nc(N(C)C)oc(=O)c2C#N)CC1	-7	0.7	-4.1	-1	.
C=C(C)CSc1nnc([C@@H](N)Cc2c[nH]c3ccccc23)o1	-3	-0.3	1.2	0	14

The list is partial, so the mix of outcomes need not match the whole.
